# StopGo reporter = FMDV 2A StopGo reporter, luciferase signal. human cells with a luciferase reporter of 2A StopGo recoding; control for the full effect not named in the record. Potency, µM (series often up to 57.9 µM), inactives show top-dose signal change, negative = less light. 410,000 tested, 1.2% active. AID 1159524; active = well fitted falling curve with a large enough effect; inconclusive = small, poorly fitted or top-dose-only effect; inactive = no such curve, though single readings can be large or run the other way; tested in HEK293T cells; further: on the % scale 0 is the no-effect control and ±100 the full control effect; nearly all actives have a fitted effect of over 45% in size; luciferase light after 4 h
# SARS PLP yeast = blocks SARS-CoV papain-like protease in a yeast assay | S. cerevisiae expressing SARS-CoV PLpro, growth rescue; control for the full effect not named in the record | Potency, µM (top dose mostly 32.9 µM), without a hit: top-dose activity, positive = growth rescue | 330,000 tested, 0.19% active | AID 485353; active means well fitted rising curve with a large enough effect; inconclusive means small, poorly fitted or top-dose-only effect; inactive means no such curve, though single readings can be large or run the other way; further: 0% is about no effect; nearly all actives have a fitted effect of over 55% in size; growth read by luminescence after 48 h
# RE007 growth inh = less growth of the S. pombe RE007 Vpr strain | S. pombe RE007 Vpr strain, BacTiter-Glo ATP luminescence, 24 h; control for the full effect not named in the record | Potency, µM (series often up to 92.2 µM), for inactives: top-dose activity change, negative = less growth | 360,000 tested, 0.21% active; active = well fitted falling curve with a large enough effect; inconclusive = small, poorly fitted or top-dose-only effect; inactive = no such curve, though single readings can be large or run the other way;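 further: on the % scale 0 is the no-effect control and ±100 the full control effect; nearly all actives have a fitted effect of over 50% in size; the assay follows cell death caused by Vpr and the record does not say whether a fall means rescue or toxicity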
#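 Fission yeast strain RE007, carrying one chromosomally integrated HIV-1 vpr copy, was seeded at OD 0.01 in PMG+AL medium with 23 nL pinned compound. After 24 h at 30 °C and 99% humidity, viability was read by BacTiter-Glo luminescence.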
# Numbers without * were called inactive; u = inconclusive; & = joins results of further samples; [ ] = another dose, or the depositor's remark. Potency means the concentration at half of the fitted maximal effect. These rows are one share of the data; count on the stated rates, not on these rows.
SMILES,StopGo reporter,SARS PLP yeast,RE007 growth inh
C#CCOCCOCCOCCNc1nc(N2CCN(C(=O)CCCCCCCCCCNC(=O)Cn3cc(CCCCCN)nn3)CC2)nc(N2CCN(C(=O)CCCCCCCCCCNC(=O)[C@@H](CCC(=O)O)n3cc(CCCCCN)nn3)CC2)n1,-14%,12%,13%
COc1ccc(-c2nnn(CC(=O)NC(=O)NC3CCCCC3)n2)cc1OC,-22%,6%,0%
O=C(c1ccc(Br)cc1)C12CN3CN(CN(C3)C1)C2,-9%,4%,3%
CSc1ncccc1C(=O)Nc1cccc(S(=O)(=O)N2CCCC2)c1,-19%,2%,-22%
O=C(CNCc1ccccc1Cl)Nc1cc(S(=O)(=O)N2CCOCC2)ccc1Cl,-20%,5%,-6%
Cc1cc(NC(=O)Nc2cccc([N+](=O)[O-])c2)no1,9%,-1%,17%
CC(=O)NS(=O)(=O)c1ccc(NC(=O)c2ccc(NC(=O)c3cccs3)cc2)cc1,-19%,13%,0%
C[C@@H]1CN([C@H](C)CO)C(=O)c2cccc(NS(=O)(=O)c3cccs3)c2O[C@H]1CN(C)Cc1ccccc1,27%,-3%,7%
Cc1cc(Cl)ccc1NC(=O)CCN1C(=O)C2CCCCC2C1=O (stereo not drawn),1%,8%[6.58 µM],2%
COC(=O)[C@]1(C)N[C@H](CN(C)C(C)=O)[C@@H]2C(=O)N(C)C(=O)[C@@H]21,8%,-1%,8%
CCOc1ccc(S(=O)(=O)Nc2cccc(C(=O)NCCCN3CCCC3=O)c2)cc1,0%,1%,-6%
C[C@H](CO)N1C[C@H](C)[C@@H](CN(C)S(=O)(=O)c2ccccc2)Oc2ccc(NC(=O)Nc3ccc(C(F)(F)F)cc3)cc2C1=O,u,-5%,0%
CC(C)(C)c1ccc(S(=O)(=O)N2CCN(CC(O)COCC3CCCO3)CC2)cc1 (stereo not drawn),2%,-7%,-4%
COc1ccc(-c2sc3ccc(N4CCOCC4)cc3c2C#CCCO)cc1,u,0%,-9%
NC(=O)c1ccc(NS(=O)(=O)c2ccc(Br)s2)cc1,31%[activator],-3%,7%

# Retrieved by structure from the list above (4):
SMILES,StopGo reporter,SARS PLP yeast,RE007 growth inh
CC(=O)NS(=O)(=O)c1ccc(NC(=O)c2ccc(NC(=O)c3cccs3)cc2)cc1,-19%,13%,0%
CC(C)(C)c1ccc(S(=O)(=O)N2CCN(CC(O)COCC3CCCO3)CC2)cc1 (stereo not drawn),2%,-7%,-4%
C[C@@H]1CN([C@H](C)CO)C(=O)c2cccc(NS(=O)(=O)c3cccs3)c2O[C@H]1CN(C)Cc1ccccc1,27%,-3%,7%
COc1ccc(-c2sc3ccc(N4CCOCC4)cc3c2C#CCCO)cc1,u,0%,-9%

# Continued:
SMILES,StopGo reporter,SARS PLP yeast,RE007 growth inh
COC(=O)c1ccc(CNC(=O)Cn2cnc3c(SC)nc(N)nc32)cc1,-19%,-2%,4%
Cc1ccc2nc(SCC(=O)Nc3ccc(Br)cc3)nc(=O)n2c1,11%,3%,23%
CC(=O)N1CCN(C(=S)Nc2cc(S(=O)(=O)N3CCOCC3)ccc2Cl)CC1,-18%,11%,-3%
O=C(c1ccccc1)C(c1ccccc1)c1ccccc1,-9%,0%,9%
COc1ccc(-c2cc3cc(OC)c(OC)cc3cn2)cc1,21%,-5%,-29%
COc1ccc(-c2c(C(=O)O)c(-c3ccccc3)cn2C)cc1,8%,-7%,2%
COc1cc(C(=O)NCC(=O)N2CCN(S(=O)(=O)c3ccccc3C(F)(F)F)CC2)cc(OC)c1OC,-14%,4%,9%
C[C@H](CO)N1C[C@H](C)[C@@H](CN(C)Cc2ccc(-c3ccccc3)cc2)Oc2c(NS(=O)(=O)c3cn(C)cn3)cccc2C1=O,-3%,4%,-2%
COC(=O)c1c(-c2ccccc2)csc1N1C(=O)Nc2ccccc2N1O,68%[activator],0%,2%
CSCCC1NC(=O)N(CC(=O)Nc2ccc3c(c2)OCCO3)C1=O (stereo not drawn),-3%,-5%,-2%
COc1cccc(NC(=O)CN(C)C(=O)c2cccc(S(=O)(=O)Nc3ccc(C)cc3)c2)c1,36%[activator],0%[6.58 µM],10%
Cc1cc(C)n(CC(=O)NNC(=O)c2ccc(NC(=O)CC#N)cc2)n1,-7%,-7%,0%
Cc1ccc(-c2cc(-c3ccccc3)cc(-c3ccccc3)[n+]2-c2ccccc2C(=O)O)cc1,u,0%,-15%
Cc1ccc(NC(=O)CSc2ccc(-c3cccnc3)nn2)cc1Cl,-25%,1%,-6%
Cc1cc(OC(=O)c2ccc(S(=O)(=O)N3CCCC3)cc2)c([N+](=O)[O-])c(=O)[nH]1,-10%,-1%,0%
CCN(CC)S(=O)(=O)c1ccc(N2Cc3ccccc3C2=N)cc1,-6%,-2%,-16%
Cc1[nH]c(=O)[nH]c(=O)c1N(C)C,18%,0%,6%
Cc1ccc(OC(C)C(=O)N=Nc2c(O)[nH]c3ccc([N+](=O)[O-])cc23)cc1 (stereo not drawn),u,-2%,-13%
COc1cc(OC)cc(-c2c(C#Cc3ccsc3)c3cc(-c4ccc(C(N)=O)cc4)ccc3n2C)c1,-19%,4%,8%
COC(=O)C1=C(c2ccc3ccccc3c2)C[C@@H]2CC[C@H]1N2C(=O)NCc1ccco1,-20%,-20%,6%
Cc1ccc(C(=O)N/N=C2\CCCc3ccccc32)c(C)c1,100%[activator],0%,6%
O=C(OCC(=O)c1ccc[nH]1)c1ccc([N+](=O)[O-])cc1,-13%,2%,-9%
CCC(C)N(C(=O)COC(=O)CN=C1NS(=O)(=O)c2ccccc21)C1CCS(=O)(=O)C1 (stereo not drawn),-20%,-7%,-10%
NC(=O)c1nc[nH]c1C(=O)Nc1cccc(C(F)(F)F)c1,18%,-6%,4%
COc1cc(C(=O)NNC(=O)C2CCC2)cc(OC)c1OC,-14%,0%,6%
O=C(N=Nc1c(O)[nH]c2ccccc12)c1ccc2c(c1)OCO2,-20%,-5%,-7%
CC(=O)c1c(C)[nH]c(C(=O)CN2C(=O)NC(C)(CCC(C)C)C2=O)c1C (stereo not drawn),u,1%,-3%
CC(=O)Oc1ccccc1N(C(C)=O)S(=O)(=O)c1ccc(C)cc1,6%,-4%,2%
CC(C)(C)NC(=O)[C@]1(C)CCC[C@@]2(C)C3CC[C@@]4(C)C[C@]3(CCC21)CC4=O (stereo partly drawn),-19%,-4%,19%
COc1cccc(NC(=O)C2CC2)c1,-10%,-5%,-3%

# Four structures out of the list, arranged by molar mass, smallest number first:
SMILES,StopGo reporter,SARS PLP yeast,RE007 growth inh
COc1cc(C(=O)NNC(=O)C2CCC2)cc(OC)c1OC,-14%,0%,6%
CC(=O)c1c(C)[nH]c(C(=O)CN2C(=O)NC(C)(CCC(C)C)C2=O)c1C (stereo not drawn),u,1%,-3%
CC(C)(C)NC(=O)[C@]1(C)CCC[C@@]2(C)C3CC[C@@]4(C)C[C@]3(CCC21)CC4=O (stereo partly drawn),-19%,-4%,19%
COC(=O)C1=C(c2ccc3ccccc3c2)C[C@@H]2CC[C@H]1N2C(=O)NCc1ccco1,-20%,-20%,6%

# Next section
SMILES,StopGo reporter,SARS PLP yeast,RE007 growth inh
N#Cc1ccc(C(=O)OCCCc2cc3ccccc3c(=O)o2)cc1,32%[activator],10%,2%
CCC1Nc2ncnc(N3CCCCC3)c2N(Cc2ccc(Cl)cc2)C1=O (stereo not drawn),0%&-28%,-3%,-3%&18%
CC1CCc2sc(C(=O)NCC(c3ccco3)N3CCCCC3)cc2C1 (stereo not drawn),-13%,1%,-7%
Cc1nnc(SCC(=O)NNC(=O)c2ccco2)n1-c1cccc(Cl)c1,3%,-3%,6%
Cc1cc(C)c(S(=O)(=O)N(C)c2ccccc2)c(C)c1,-19%,-3%,1%
CC1(c2cccc(Br)c2)NC(=O)N(CC(=O)Nc2ccc3c(c2)OCCO3)C1=O (stereo not drawn),-32%,0%,u
Cc1ccc(C(=O)N2CCN(c3ccccc3Cl)CC2)cc1[N+](=O)[O-],-7%,-11%,-3%
O=C(NCc1ccccc1CN1CCCC1)c1ccc(Cl)c(N2CCCC2=O)c1,6%,-4%,6%
CN1C(=O)N(CC(=O)Nc2nccs2)C(=O)C12CCCCC2,-8%,0%,4%
CC(Sc1cccc[n+]1[O-])C(=O)NC1CCCCC1C (stereo not drawn),-5%,2%,15%
COc1cccc(-c2sc3ccccc3c2-c2ccc(OCCN3CCCCC3)cc2)c1,u,-10%,-22%
O=C(NCCCCCCOC1=NS(=O)(=O)c2ccccc21)C(=O)Nc1ccccc1,10%,-2%,0%
COc1ccc2[nH]c3c(c2c1)CCN1C(=O)C(CC(=O)NCCC2=CCCCC2)C[C@H](C(=O)N2CCCCC2)[C@@]31CCc1ccccc1 (stereo partly drawn),-2%,6%,-7%
Cc1cc(C)c(OCC(=O)Nc2cc(C(=O)O)cc(C(=O)O)c2)cc1C,-9%,-4%,-7%
O=C(COC(=O)c1ccc(Br)o1)Nc1ccc(Br)cc1,8%,2%,0%
NC1=NC[C@@H](CC2CCCCC2)N1CCc1cc(C(F)(F)F)cc(C(F)(F)F)c1,35µM*,-1%,53%
Nc1c(C(=O)CSc2nccn2-c2cccc(F)c2)c(=O)[nH]c(=O)n1C1CC1,-14%,1%,2%
O=C(COc1ccccc1C(=O)NCc1ccccn1)Nc1ccc(Br)cc1,21%,-1%,11%
CC(=O)Nc1ccc(S(=O)(=O)NCC(=O)N2CCN(S(=O)(=O)c3cccs3)CC2)cc1,-21%,2%,-14%
COc1ccc(NC(=O)N(C)C[C@@H]2Oc3c(NC(=O)Nc4c(C)noc4C)cccc3C(=O)N([C@@H](C)CO)C[C@@H]2C)cc1,-24%,1%,15%
Cc1cccc(NC(=O)CNC(=O)CSc2nnc(C(F)(F)F)n2C)c1C,-13%,6%,10%
CCCCn1c(N)c(N(CC)C(=O)c2cnc(C)cn2)c(=O)[nH]c1=O,-17%,2%,1%
COc1ccc(S(=O)(=O)N2CCOCC2)cc1NC(=O)COC(=O)c1oc2ccccc2c1C,-12%,4%,0%
Cc1nn(CCC(=O)NNC(=S)Nc2ccc([N+](=O)[O-])cc2)c(C)c1[N+](=O)[O-],2%,0%,6%
CN1CCN(c2ccc(Cl)cc2NC(=O)CCN2C(=O)c3ccccc3C2=O)CC1,-6%,2%,-14%
CCN(CC(=O)NCc1cccs1)C(=O)c1ccc(-c2ccc(F)cc2)o1,16%,0%,-22%
C[C@H](CO)N1C[C@H](C)[C@@H](CN(C)C(=O)Nc2ccccc2)Oc2ccc(NC(=O)Nc3ccc(C(F)(F)F)cc3)cc2C1=O,0%,2%,-3%
Cc1ccc(NC(=O)COC(=O)c2nn(C)c(=O)c3ccccc23)cc1F,-9%,-1%,-11%
COc1ccc(C2C(C#N)=C(N)Oc3c2oc(CO)cc3=O)cc1 (stereo not drawn),-15%,0%,2%
O=C1C=C(c2ccc3c(c2)oc2ccccc23)C[C@@H](c2ccc(Cl)cc2)C1,-1%,-5%,2%
COc1ccc(C(=O)NCc2ccccc2CN2CCCC2)cc1S(=O)(=O)Nc1ccc(C)cc1,45%[activator],1%,1%
COC/C=C/C1=CC(=O)C[C@H](c2ccc3c(c2)OCO3)C1,-28%,-4%,-1%
Nc1nnc(SCn2nnc3ccccc3c2=O)s1,1%,1%,8%
C[C@@H]1C(=O)O[C@H]2CC34[C@H]5C[C@@H](C(C)(C)C)[C@]36[C@@H](OC(=O)[C@@H]6O)O[C@@]4(C(=O)O5)[C@]21O (stereo partly drawn),5%,2%,2%[18.4 µM]
CC1Sc2ccc(C(=O)NCc3ccccc3Cl)cc2NC1=O (stereo not drawn),54%[activator],6%,-8%
O=C(NCCc1ccccn1)c1c(-c2ccccc2)sc2ccccc12,-5%,-4%,3%
COc1cc(C(=O)NNC(=O)CSc2nnc3ccccn23)cc(OC)c1OC,-5%,-7%,-1%
O=C(C1CC(=O)N(c2ccc3c(c2)OCCO3)C1)N1CCN(Cc2ccccc2F)CC1 (stereo not drawn),-12%,-10%,-6%
O=C(C[n+]1ccccc1)N/N=C/c1ccccc1Cl,-6%,1%,0%
COc1ccc(NC(=O)c2ccc(OCC3CCCO3)cc2)cc1OC (stereo not drawn),8%,2%,-7%
COC(=O)[C@@]12CCCCN1[C@H](c1ccc(-c3ccccc3)cc1)[C@@H]1C(=O)N(C)C(=O)[C@@H]12,-23%,-10%,34%
COc1ccc(/C=C2\N=C(SC)N(c3ccccc3OC)C2=O)cc1,u,-8%,-7%
COC(=O)c1c(NC(=S)Nc2ccc(C(=O)N3CCOCC3)cc2)sc2c1CCC2,-5%,0%,-4%
CN(C)C(=O)CCc1ccc2c3c([nH]c2c1)[C@]1(CCc2ccccc2)[C@@H](C(=O)N2CCCCC2)C[C@H](CC(=O)NC(C)(C)C)C(=O)N1CC3,55%[activator],8%,2%
Cc1ccc(S(=O)(=O)NNC(=O)c2cccnc2)cc1,3%,1%,0%
CC(=O)c1sc(NC(=O)C2CCCN2S(=O)(=O)c2ccccc2F)nc1C (stereo not drawn),-6%,2%,10%
O=C(COC(=O)Cc1ccccc1F)Nc1ccccc1[N+](=O)[O-],-4%,-12%,-9%

# High-throughput results deposited in PubChem by National Center for Advancing Translational Sciences (NCATS).
